Insulin prom inh: TRM-6 insulin promoter activity inhibition; TRM-6 cells (human fetal islet line), insulin promoter-eGFP reporter, imaging; reporter expression induced with tamoxifen; inhibition, % at 2 µM; 0.9% of 130,000 active; AID 1273;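 active = inhibition above the mean plus 3 SD, with well images judged a real hit on visual review, cut at about 60% in these data, passing the limit was not always enough; inconclusive = inhibition over the cutoff but images rejected on review; inactive = inhibition not above the cutoff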
RGS16-Gao HTS: regulators of human RGS16-Galphao interaction; O15492+P09471; bead-based flow cytometry RGS16-Galphao binding, fluorescence; actives lie on both sides; binding response (% of control), % at 10 µM; 0.38% of 220,000 active; AID 1441;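 active = below 25% or above 175%, edge rows of some plates excepted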;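 note: Galphao activated by GDP with aluminum fluoride before binding; 100% = wells without compound and 0% = beads without RGS; some results beyond the cut were filed as inactive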
Target sequence (O15492 whole entry, looked up): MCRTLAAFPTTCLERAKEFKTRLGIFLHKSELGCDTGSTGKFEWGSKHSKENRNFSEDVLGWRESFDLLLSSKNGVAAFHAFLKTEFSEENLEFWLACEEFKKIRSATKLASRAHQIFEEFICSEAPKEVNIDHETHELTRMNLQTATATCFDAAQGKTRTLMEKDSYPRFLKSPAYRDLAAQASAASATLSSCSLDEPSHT
Target sequence (P09471 whole entry, looked up): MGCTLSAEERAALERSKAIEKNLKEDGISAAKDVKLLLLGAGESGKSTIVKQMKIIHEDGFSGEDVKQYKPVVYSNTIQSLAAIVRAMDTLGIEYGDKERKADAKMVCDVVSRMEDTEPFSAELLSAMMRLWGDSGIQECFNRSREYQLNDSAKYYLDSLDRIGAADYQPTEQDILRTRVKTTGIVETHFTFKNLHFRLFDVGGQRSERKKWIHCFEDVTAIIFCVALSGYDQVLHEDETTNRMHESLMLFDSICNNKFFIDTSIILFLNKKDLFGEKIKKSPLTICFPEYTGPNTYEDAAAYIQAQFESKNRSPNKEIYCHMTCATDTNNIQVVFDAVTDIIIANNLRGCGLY
PKD1 inh: inhibitors of human PKD1 kinase | Q15139 | PKD1 kinase fluorescence polarization assay | inhibition, %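 (about 10 µM by stock and volumes)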 | 0.056% of 200,000 active;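 active = inhibition of 50% or more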;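 note: controls were vehicle for no effect and a reference inhibitor for full effect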
GALR2 agonist: agonists of human galanin receptor 2 (GALR2); O43603; GALR2-expressing cells, agonist activation read-out; activation, %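 (tested at 5 µM)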; 0.48% of 140,000 active;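 active = above mean plus 3 SD of all compounds, about 5% in these data, not always enough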;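 note: 0% = vehicle buffer wells and 100% = reference agonist at full effect; tested in CHO reporter cells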
Target sequence (O43603 whole entry, looked up): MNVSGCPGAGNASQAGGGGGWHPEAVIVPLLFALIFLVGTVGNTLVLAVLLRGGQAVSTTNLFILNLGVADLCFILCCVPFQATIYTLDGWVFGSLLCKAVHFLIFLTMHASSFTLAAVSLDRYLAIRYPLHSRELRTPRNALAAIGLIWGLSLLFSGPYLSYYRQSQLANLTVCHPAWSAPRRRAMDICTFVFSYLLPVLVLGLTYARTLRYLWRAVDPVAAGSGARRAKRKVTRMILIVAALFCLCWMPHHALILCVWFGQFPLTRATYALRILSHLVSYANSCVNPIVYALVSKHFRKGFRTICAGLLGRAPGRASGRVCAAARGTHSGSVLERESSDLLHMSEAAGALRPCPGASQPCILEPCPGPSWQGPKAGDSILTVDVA
HSV replic up: HSV replication enhancement. HSV replication augmentation in cells, fold increase. maximum fold increase. 0.005% of 220,000 active;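 active = peak rise of 1.5-fold or more in the series; inconclusive = self-fluorescent or not available for retest; tested in PC3 cells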;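 note: first round at 10 µM; read as green reporter fluorescence; hits show the peak of a series up to 25 µM; 1 = signal of infected wells without compound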
Insulin prom inh cell count: further read-out of Insulin prom inh, marked with its call; normalized cell count, %; measured here: cell count, toxicity; reference of the scale not given here;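 cells exposed to compound for 48 h; stained nuclei by imaging scaled within each plate; lower means fewer cells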
HSV replic up primary fold: also measured in HSV replic up; calls as there; fold increase; compound at 10 µM; measured here: primary screen fold increase 10 uM; tested in PC3 cells;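 GFP signal in the first replicate; 1 = infected wells without compound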
Active calls of the source: *; i = inactive; ? = inconclusive; . = no result given. Hits appear at their usual frequency; 1.3% or so of the library scored in one or more.

SMILES	Insulin prom inh	Insulin prom inh cell count	RGS16-Gao HTS	PKD1 inh	GALR2 agonist	HSV replic up	HSV replic up primary fold
CN(C(=O)CC1C(=O)NCCN1Cc1ccc(F)c(F)c1)C1CCOCC1 (configuration not stated)	.	.	98	-7	.	i	0.91
O=C(NCc1ccccn1)c1cc(-c2ccc(Br)cc2)nc2ccccc12	-7	80	104	-7	-0.8	i	1
CCC(C)Sc1nc2c(c(=O)n1C)SC(C)C2 (configuration not stated)	30	139	101	-2	-1.0	i	0.96
Cc1[nH]c(=O)[nH]c(=O)c1S(=O)(=O)N(C)Cc1ccccc1	.	.	90	-3	-0.8	i	0.9
CCOc1cc(C)c(Cl)cc1S(=O)(=O)NC1CC(C)(C)NC(C)(C)C1	14	115	105	-1	-1.6	i	0.9
CCN1C(=O)C(CC(=O)Nc2ccc(OC)cc2)N(CCc2ccccc2F)C1=S (configuration not stated)	.	.	99	.	.	i	1
O=C1CC(c2ccccc2F)c2cc3c(cc2N1)CCC3 (configuration not stated)	.	.	101	3	-1.6	.	.
CCN(CC)c1ccc(NC(=O)CC2Oc3ccccc3NC2=O)c(C)c1 (configuration not stated)	.	.	90	-3	-2.3	i	0.96
CCCCC(=O)O[C@]1(C(=O)CO)CC[C@H]2[C@@H]3CCC4=CC(=O)CC[C@]4(C)[C@H]3[C@@H](O)C[C@@]21C	-68	144	104	-16	1.0	i	0.8
O=C(NC1CCCCC1)N1CCCC1	54	115	106	-10	-1.1	i	0.81
COc1cc(/C=C(/C#N)c2nc3ccccc3[nH]2)ccc1OC(=O)c1ccco1	-4	78	98	13	-1.3	?	.
CC1CCC(NC(=O)c2ccc(S(C)(=O)=O)cc2)CC1 (configuration not stated)	-22	84	61	3	-1.0	i	1.2
Cc1cc2ncn(CCC(=O)NC(C)(C)C)c2cc1C	19	111	102	-6	.	i	0.98
O=C1C(=Cc2cccn2-c2ccc(O)cc2)C(=O)c2ccccc21	4	48	95	-1	-0.3	.	.
CCCCCC(=O)Nc1ccc(S(=O)(=O)Nc2nccnc2OC)cc1	-36	159	99	-15	-0.1	i	0.99
CCOc1ccc2c(c1)[N+](C)(C)C(C)(C)C=C2C	-27	54	134	-6	.	i	0.95
CN1CCC(=NNC(=O)C(=O)Nc2cccc(Br)c2)CC1	6	111	94	2	.	i	0.93
Cc1cc(Nc2ccc(F)cc2C)n2ncnc2n1	.	.	105	7	-1.1	i	1.4
O=c1cc(CO)oc(CN2CCCC2)c1O	.	.	100	-4	-1.4	i	1.2
CN(c1ccccc1C(=O)NCc1ccco1)S(C)(=O)=O	9	144	94	-7	-1.3	i	0.9
CCCCNC(=O)CSc1nnc(-c2ccc(S(=O)(=O)N3CCCC3)cc2)n1C	-106	107	72	-1	-1.2	i	0.81
CCN1CCn2c3c(c4cc(C)ccc42)CCCC31 (configuration not stated)	-58	73	102	1	-0.8	i	0.95
O=c1c(=Nc2ccccc2O)c(=O)c2ccccc12	.	.	99	-4	.	i	0.84
c1csc(-c2nn3c(Cn4nnc5ccccc54)nnc3s2)c1	67	72	71	-3	-1.6	i	1.1
COc1ccc(-c2nnc(SCC(=O)c3cc(C)n(Cc4cccs4)c3C)o2)cc1	0	63	99	4	-1.1	i	0.98

Other compounds follow.
SMILES	Insulin prom inh	Insulin prom inh cell count	RGS16-Gao HTS	PKD1 inh	GALR2 agonist	HSV replic up	HSV replic up primary fold
CC1CN(Cc2ccccc2)c2ccccc2NC1=S (configuration not stated)	15	147	101	10	-1.9	i	0.91
CCN(/C=N/S(=O)(=O)c1ccc(Cl)cc1)CC	.	.	94	0	.	i	1
Cc1ccc(S(=O)(=O)N2C(=O)C(c3ccccc3)SC2=Nc2ccccc2)cc1 (configuration not stated)	.	.	97	-4	0.1	i	1.1
Cc1ccc(C)c(C(C)NC(=O)c2ccccc2Br)c1 (configuration not stated)	-31	120	110	-4	-0.5	i	0.95
COC(=O)c1ccc2nc(NC(=O)C3CCCCC3)sc2c1	.	.	109	0	.	i	0.76
Cc1cc(Br)ccc1OCC(=O)NNC(=O)c1cnccn1	-200	18	107	-7	-1.2	i	0.99
C=C(C)C(=O)Nc1cccc(C2=NOC3(C2)C[C@@H](C(N)=O)N(C(=O)C2(C)CC2)C3)c1 (some centres not stated)	.	.	99	.	.	i	0.95
COc1ccccc1OCCC(=O)OCCN1C(=O)c2ccccc2C1=O	.	.	98	-12	-0.2	i	1.1
Cc1ccc(S(=O)(=O)N2CCN(C(=O)C3CCN(C(=O)c4ccccc4C)CC3)CC2)cc1C	.	.	100	0	.	i	0.86
C/C(=N\NC(=O)C(O)(c1ccccc1)c1ccccc1)c1ccc(C)o1	-15	63	42	-6	-1.0	i	1.1
O=C(c1ccc2c(c1)OCO2)N1CCN(c2ccc(Cl)cc2)CC1	-21	98	103	10	-0.2	i	1
O=C(CSc1nc(-c2ccc(F)cc2)cs1)N1CCN(C(=O)c2ccco2)CC1	-22	124	98	-8	-1.6	i	1
CN1C/C(=C/c2ccsc2)C(=O)/C(=C/c2ccsc2)C1	.	.	96	0	-1.2	i	1
COc1cc(CNc2ccc3[nH]c(=O)[nH]c3c2)cc(Cl)c1OCC(=O)NC(C)(C)C	-61	28	95	-3	-1.3	i	1.1
COc1ccc2c(c1)-c1nc(/N=C/c3cccc(OC)c3O)sc1CC2	47	70	129	-5	-1.4	i	0.8
CCC(C)N1C(=O)CCC1C(=O)NCc1ccc2c(c1)OCO2 (configuration not stated)	.	.	108	5	-1.6	i	1
Cc1cccc(-n2c(-c3ccco3)nc3nc4ccccc4nc32)c1	-9	37	-157	-2	-0.6	.	.
COc1ccc(/C=C/C(=O)Nc2cccc(N3CCOCC3)c2)cc1OC	-17	105	110	-9	0.6	.	.
COc1cc(C(=O)Nc2cccc(-c3nnc(-c4ccco4)o3)c2)ccc1OC(C)=O	.	.	101	-6	.	i	0.82
Cn1c(=O)c([N+](=O)[O-])c(NCCCn2ccnc2)c2ccccc21	.	.	103	.	.	i	1.1
Cc1ccc(S(=O)(=O)NC(c2ccccc2)C(C)C(=O)n2nc(C)cc2C)cc1 (configuration not stated)	-117	74	105	-1	0.4	i	0.93
CC(C)CNC(=O)C1CCCN(S(=O)(=O)c2ccc(-n3cnnn3)cc2)C1 (configuration not stated)	.	.	110	-3	-0.9	.	.
O=C(NCc1ccco1)C(c1ccco1)N(Cc1cccs1)C(=O)Cn1nnc2ccccc21 (configuration not stated)	-35	115	112	-2	-1.0	i	1
CCOc1ccc(N2C(=O)C3C(C2=O)C3(c2ccccc2)c2ccccc2)cc1 (configuration not stated)	23	127	116	2	-0.6	i	0.98
CC1CCc2sc(C(=O)N/N=C/c3ccc(O)cc3)cc2C1 (configuration not stated)	.	.	97	.	.	i	0.92

Compounds shown so far containing an NH in an aromatic ring:
SMILES	Insulin prom inh	Insulin prom inh cell count	RGS16-Gao HTS	PKD1 inh	GALR2 agonist	HSV replic up	HSV replic up primary fold
Cc1[nH]c(=O)[nH]c(=O)c1S(=O)(=O)N(C)Cc1ccccc1	.	.	90	-3	-0.8	i	0.9
COc1cc(/C=C(/C#N)c2nc3ccccc3[nH]2)ccc1OC(=O)c1ccco1	-4	78	98	13	-1.3	?	.
COc1cc(CNc2ccc3[nH]c(=O)[nH]c3c2)cc(Cl)c1OCC(=O)NC(C)(C)C	-61	28	95	-3	-1.3	i	1.1

More results
SMILES	Insulin prom inh	Insulin prom inh cell count	RGS16-Gao HTS	PKD1 inh	GALR2 agonist	HSV replic up	HSV replic up primary fold
Cn1c(N)c(C(=O)COC(=O)c2cc(C3CC3)nc3ccccc23)c(=O)n(Cc2ccccc2)c1=O	55	120	100	-4	-0.8	i	0.81
CC1(C)CC(CCN)(Cc2ccccc2Cl)CCO1 (configuration not stated)	.	.	106	.	.	i	0.89
CC(OC(=O)C1CC1)C(=O)Nc1ccc([N+](=O)[O-])cc1Cl (configuration not stated)	-15	133	99	-2	.	i	1.1
CCOc1nc(-c2ccccc2Cl)nc2ccccc12	.	.	102	.	.	i	1.2
CCOc1ccc(C(=O)NCCn2cc(SCC(=O)Nc3cc(C)on3)c3ccccc32)cc1	-24	100	99	1	-0.1	i	0.92
CC1CN(C(=O)COC(=O)c2ccc(Cl)nc2)CC(C)O1 (configuration not stated)	.	.	96	1	.	i	0.95
CC1(C)CC(CCNC(=O)CCl)(c2ccccc2)CCO1 (configuration not stated)	.	.	99	.	.	i	0.92
Cn1c(CNC(=O)OC(C)(C)C)nnc1SCC(=O)N1CCOCC1	.	.	92	.	.	i	0.98
O=[N+]([O-])c1cccc(S(=O)(=O)c2ccc(N3CCCCC3)c([N+](=O)[O-])c2)c1	-31	73	103	-2	-1.6	i	0.93
CCC(C)NC(=O)c1ccc(N2CCC3(CC2)OCCO3)c([N+](=O)[O-])c1 (configuration not stated)	-34	121	69	-4	1.6	i	0.81
Cn1c(SCC(=O)Nc2sccc2C(N)=O)nnc1-c1ccncc1	.	.	103	.	.	i	1.1
CC1CN(CC(O)COc2ccccc2C(C)(C)C)CC(C)O1 (configuration not stated)	-16	198	107	1	-1.4	i	1
N#C/C(Cn1c[n+](NC(=O)Nc2ccccc2)cn1)=N/O	-10	119	106	-4	-0.8	i	0.84
O=C(NNS(=O)(=O)c1ccccc1C(F)(F)F)c1cccc(S(=O)(=O)Nc2ccccc2Cl)c1	22	144	100	-2	-1.0	i	0.9
O=C(CN1CCN(c2ccc(O)cc2)CC1)NC1CCCc2ccccc21 (configuration not stated)	17	90	108	-21	-1.3	i	0.81
CCN1c2ccccc2NC2N=C(OC)C(c3ccccc3)C21 (configuration not stated)	-136	128	101	-1	-0.3	i	1.1
N/C(COc1ncn(-c2ccccc2)n1)=N\S(=O)(=O)c1ccccc1	6	103	106	7	.	i	1
COc1ccc(OC)c(NC(=O)c2ccc(NS(C)(=O)=O)cc2)c1	18	104	100	5	-0.5	i	0.9
NC(=O)c1nn(-c2ccccc2)nc1NC(=O)CN1CCCCC1	.	.	100	-5	0.4	i	0.78
COc1ccc2cc3cc(C(=O)Nc4ccc5c(c4)OCO5)oc3nc2c1	16	111	89	-9	-1.2	i	0.87
CC(C)(C)c1cc(C(=O)N/N=C/c2ccc(O)cc2)n(-c2ccccc2)n1	-21	169	104	-3	0.3	i	0.8
COc1ccc(NC(=O)c2ccccc2-c2ccc(C(F)(F)F)cc2)cc1S(=O)(=O)N1CCOCC1	-38	98	96	5	-1.0	i	0.92
O=C(CSc1nnnn1-c1ccccc1)Nc1ccc(Cl)cn1	44	101	98	-6	-2.1	i	0.94
O=C1c2ccccc2C(=O)N1OS(=O)(=O)c1ccccc1	46	66	86	-14	-1.1	i	0.94
CCOC(=O)c1sc(SCC(=O)Nc2ccc(N(C)C)cc2)nc1N	-6	126	63	-3	-3.0	i	1.2

Whole records, looked up by structure. Order of values: Insulin prom inh, Insulin prom inh cell count, RGS16-Gao HTS, PKD1 inh, GALR2 agonist, HSV replic up, HSV replic up primary fold
Entry for COc1ccc2cc3cc(C(=O)Nc4ccc5c(c4)OCO5)oc3nc2c1 : 16, 111, 89, -9, -1.2, i, 0.87
Entry for Cn1c(N)c(C(=O)COC(=O)c2cc(C3CC3)nc3ccccc23)c(=O)n(Cc2ccccc2)c1=O : 55, 120, 100, -4, -0.8, i, 0.81
Entry for CC1CN(CC(O)COc2ccccc2C(C)(C)C)CC(C)O1 (configuration not stated) : -16, 198, 107, 1, -1.4, i, 1
Entry for CCN1c2ccccc2NC2N=C(OC)C(c3ccccc3)C21 (configuration not stated) : -136, 128, 101, -1, -0.3, i, 1.1
Entry for COc1ccc(NC(=O)c2ccccc2-c2ccc(C(F)(F)F)cc2)cc1S(=O)(=O)N1CCOCC1 : -38, 98, 96, 5, -1.0, i, 0.92

Later entries.
SMILES	Insulin prom inh	Insulin prom inh cell count	RGS16-Gao HTS	PKD1 inh	GALR2 agonist	HSV replic up	HSV replic up primary fold
COc1ccc(C2=NN(C(=O)CSc3ncccn3)C(c3cccc(OC)c3OC)C2)cc1 (configuration not stated)	27	115	100	-1	.	i	0.95
COc1ccc(C(=O)Oc2cc(N)n(S(=O)(=O)c3ccccc3)n2)cc1	22	61	101	-4	.	i	1.1
O=C(Cn1cnc2c(oc3ccccc32)c1=O)N1CCCc2ccccc21	14	126	105	0	-1.3	i	0.84
CCS(=O)(=O)Nc1cccc(C2=NN(S(=O)(=O)c3ccc(C)cc3)C(c3ccco3)C2)c1 (configuration not stated)	20	67	101	4	.	i	1.1
CCOC(=O)C1(C)/C(=N/Nc2ccccc2Cl)C(=O)C(=O)N1c1ccccc1 (configuration not stated)	.	.	98	-13	-1.7	i	0.91
Cc1cc(C)nc(NS(=O)(=O)c2ccc(NC(=O)c3ccc4c(c3)OCCO4)cc2)n1	-5	76	99	-2	.	i	1.1
